D2 PAM = potentiates the human D2 dopamine receptor allosterically. actives 0.23% (n = 360,000). potentiation, % (concentration not given with the values). DiscoveRx D2 beta-arrestin cells, luminescence, 90 min; 100% = 57 uM dopamine signal. P14416; active = potentiation of 50% or more; inconclusive = 30% to 50%; inactive = 30% or less;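 note: compound concentration not given in the record; tested on top of an EC20 dose of dopamine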
Target sequence (P14416 whole entry, looked up): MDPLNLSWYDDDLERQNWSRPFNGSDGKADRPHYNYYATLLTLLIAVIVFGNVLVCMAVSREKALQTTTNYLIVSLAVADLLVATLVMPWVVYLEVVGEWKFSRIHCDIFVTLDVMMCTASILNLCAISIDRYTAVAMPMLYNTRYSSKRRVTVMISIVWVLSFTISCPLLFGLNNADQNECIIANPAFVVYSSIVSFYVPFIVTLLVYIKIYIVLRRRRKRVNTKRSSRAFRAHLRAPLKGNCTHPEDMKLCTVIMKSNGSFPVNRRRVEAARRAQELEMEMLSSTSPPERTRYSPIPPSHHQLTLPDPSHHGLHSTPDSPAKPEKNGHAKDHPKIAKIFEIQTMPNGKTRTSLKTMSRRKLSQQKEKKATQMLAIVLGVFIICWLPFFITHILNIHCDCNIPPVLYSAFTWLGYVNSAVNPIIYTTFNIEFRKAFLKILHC
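D2 cells co-treated with compound plus 50 nM dopamine (EC20) for 90 min at 37 deg C to detect potentiation. Beta-arrestin recruitment was read as enzyme-fragment luminescence after 1 h at ambient temperature. Full response was set by 57 uM dopamine.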
D2 ag = agonists of human D2 dopamine receptor (beta-arrestin); DiscoveRx PathHunter D2 beta-arrestin, luminescence, 90 min; 100% = 57 uM dopamine signal; activation, % (no concentration beside the values); actives 0.084% (n = 360,000); in the data active = activation above about 40%; inconclusive = about 15% to 40%; inactive = below about 15%; note: compound concentration not given in the record; the text of the record calls up to 30% inactive
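DiscoveRx PathHunter D2 beta-arrestin cells (2,100/well) attached overnight, then compound-stimulated 90 min at 37 C in HBSS/10 mM HEPES/0.1% Tween-20 buffer; beta-galactosidase complementation read by luminescence after 1 h at ambient temperature. Dopamine 57 uM final (EC100) as control.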
PINK1 expr mod = modulators of PINK1 expression; PINK1 immunofluorescence, high-content cytometry, 24 h; Potency, µM (top dose mostly 76.6 µM), inactives show at the highest dose activation (PINK1 increase), most hits filed as activators; actives 0.2% (n = 410,000); active = well fitted activation curve with a large enough effect; inconclusive = small, poorly fitted or top-dose-only effect; inactive = flat fitted curve, though single readings scatter; cell line not stated here;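 note: potency is the fitted concentration of half-maximal effect; % of control where 0% means no effect; nearly all actives have a fitted effect of over 65% in size; a mitochondrial uncoupler was the plate control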
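Compound titrations (5 concentrations, 24 h) on a stable cell line; DMSO and CCCP controls. Endpoint: fixed-cell PINK1 immunofluorescence with mitochondrial, cell and nuclear markers, scanned by microplate cytometer.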
Six1-Eya2 blk = blocks human Six1 binding to Eya2. actives 0.56% (n = 360,000). activity change, % (no concentration beside the values). AID 651725. AlphaScreen GST-Six1/His-Eya2 binding, biochemical; stronger effect = lower value; control for the full effect not named in the record; in the data active = activity change below about -65%; inconclusive = about -30% to -65%; inactive = above about -30%; note: % is set by controls: 0 for no effect and ±100 for the full control effect; compound concentration not given in the record
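AlphaScreen with GST-Six1 and His-Eya2 (5X mix: 250 nM and 500 nM), glutathione donor and nickel acceptor beads; buffer 50 mM Tris pH 8.0, 300 mM NaCl, 1 mM TCEP; 1 h at 37 C in the dark.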
TRPML1 agonist = activates the human TRPML1 channel; Q9GZU1; TRPML1-expressing cells, Ca2+ dye fluorescence, FDSS; host cell line not named in the record; reference of the full effect not given here; activation, % (no concentration beside the values); actives 0.12% (n = 410,000); AID 624414; in the data active = activation above about 50%; inconclusive = about 30% to 50%; inactive = below about 30%; note: 0% is about no effect; the text of the record puts the active cut at 80%
Target sequence (Q9GZU1 whole entry, looked up): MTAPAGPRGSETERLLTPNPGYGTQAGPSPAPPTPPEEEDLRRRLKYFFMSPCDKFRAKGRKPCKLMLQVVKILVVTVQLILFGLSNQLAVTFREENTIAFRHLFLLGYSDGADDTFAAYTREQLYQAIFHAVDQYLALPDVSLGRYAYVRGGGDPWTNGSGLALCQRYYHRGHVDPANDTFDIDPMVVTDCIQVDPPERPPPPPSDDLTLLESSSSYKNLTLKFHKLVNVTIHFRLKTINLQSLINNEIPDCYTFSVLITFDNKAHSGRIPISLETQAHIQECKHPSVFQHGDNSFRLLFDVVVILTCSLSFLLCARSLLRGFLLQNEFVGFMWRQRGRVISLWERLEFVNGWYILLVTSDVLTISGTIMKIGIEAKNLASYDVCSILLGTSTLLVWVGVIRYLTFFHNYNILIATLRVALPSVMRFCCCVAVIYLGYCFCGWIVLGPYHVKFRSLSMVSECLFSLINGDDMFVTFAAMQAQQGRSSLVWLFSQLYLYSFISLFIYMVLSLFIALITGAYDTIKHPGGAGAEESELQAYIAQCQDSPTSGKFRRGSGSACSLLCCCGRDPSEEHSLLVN
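In this qHTS format, compounds were pin-transferred onto Ca8-dye-loaded TRPML1-DL cells induced with Tet overnight, and intracellular Ca2+ fluorescence was recorded kinetically for 110 s after a 10 s baseline. A subsequent 4uM final 54-4 (EC80) addition followed by a second 110 s read served as the antagonist phase.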
CtBP-E1A inh = CtBP/E1A binding inhibition. AlphaScreen GST-E1A/His-CtBP binding, 1536-well; stronger effect = lower value; control for the full effect not named in the record. activity change, % (no concentration beside the values). actives 0.49% (n = 340,000). AID 651724; in the data active means activity change below about -65%; inconclusive means about -30% to -65%; inactive means above about -30%; note: % is set by controls: 0 for no effect and ±100 for the full control effect; compound concentration not given in the record
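Homogeneous bead-based format: GST-tagged E1A captured on glutathione donor beads, His-tagged CtBP on nickel acceptor beads; compounds precede bead addition by 2 h at 37 °C.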
* = called active by the depositor; ? = inconclusive; . = not tested or not shown; [ ] = dose if it differs, or a comment.

SMILES	D2 PAM	D2 ag	PINK1 expr mod	Six1-Eya2 blk	TRPML1 agonist	CtBP-E1A inh
Cn1ccc2c(N3CCCC3)cc3c(c21)C1CCC3C1 (configuration not stated)	-2	12	3.6%	?	-0.4	-24
CCCc1nnc(NC(=O)C(C)N2C(=O)C3C4C=CC(C4)C3C2=O)s1 (configuration not stated)	3	-4.1	1.2%	5	4.4	5
CC(=O)Nc1ccc(N2C(=O)CC(c3ccccc3)CC2=O)cc1	5	-1.1	0.7%	6	0.1	4
CCN(CC(=O)Nc1ccc(OC)cc1)CC(=O)Nc1ccc(Cl)cc1F	-14	-4.3	0.1%	-7	-0.8	-1
Cc1ccc(C(=O)N/C(=C\c2cccs2)C(=O)NC2CCCCC2)cc1	-8	-6.5	-2.7%	9	0.0	-17
COc1cccc(NC(=O)Cn2c(=O)n(-c3ccccc3)c(=O)c3sccc32)c1	7	-6.8	3.7%	-2	1.4	.
CCCNC(=O)C(CC)NC(=O)c1ccc(C#N)cc1 (configuration not stated)	0	0.3	-0.5%	11	0.0	-7
Cc1ccccc1OCC(O)COc1ccccc1C	-6	-4.7	10.0%	1	1.6	12
O=C(c1ccc2c(c1)OCCO2)N1CCCCC1	-5	-1.9	-0.2%	10	0.4	2
CC1CCN(C(=O)COC(=O)C2CCN(S(=O)(=O)c3c(Cl)cccc3Cl)CC2)CC1	18	-2.1	5.9%	13	0.9	0
CC(=O)COc1ccccc1OC(=O)c1ccco1	-19	-3.1	?	4	-1.1	5
CCOC(=O)c1cc(C#N)c(C)nc1N(CC)CC	-10	0.9	7.1%	2	0.6	9
CC(=O)c1cc2c(cc1NC(=O)C1CCC1)OCO2	-1	-4.4	5.8%	1	0.5	-1
Cc1ccc2nc(C3CCN(C(=O)NCc4ccccc4)CC3)[nH]c2c1	-12	-0.4	-6.1%[38.3 µM]	-1	0.3	-10
COc1ccc(CCNC(=O)c2nn(C)cc2Cl)cc1	-10	-0.6	-2.3%[38.3 µM]	19	-0.2	58
CC(/C=C/c1ccc(Cl)o1)=C\C(=O)O	-13	-3.4	-2.6%	3	-0.4	3
CCOc1ccc(-c2nnc(N3CCCCC3)c3ccccc23)cc1	-16	-2.0	-0.5%	-10	1.8	1
COc1ccc(-c2cnc(SCC(=O)Nc3nc(C(C)(C)C)cs3)n2Cc2ccco2)cc1	-11	0.0	-0.3%	-22	0.8	-29
CCNC(=O)CSc1nnc(-c2ccc(OC)cc2)n1CC(C)C	-5	-0.1	-3.3%	5	-0.7	2
C=CCc1cccc(/C=N/NC(=O)COc2ccc(-n3cnnn3)cc2)c1O	-12	1.9	3.6%	-1	0.4	.
Nc1cccc(C(=O)Nc2ccco2)c1	6	0.1	-2.7%	-2	-0.3	-1
C[C@@H]1CN([C@@H](C)CO)C(=O)CCCn2nncc2CO[C@H]1CN(C)S(=O)(=O)c1cccc(F)c1	-2	-9.5	3.5%	23	0.1	-2
C[C@H]1CCC[C@@]2(O[C@H](CCO)C[C@@H](O)[C@@H]2O)O1	-7	-3.3	-0.5%	5	0.9	7
COc1ccc(CNC(=O)COC(=O)c2ccc(F)c(S(=O)(=O)N3CCCCC3)c2)cc1OC	-8	-2.8	0.8%	-1	1.1	5
CCC(c1nnnn1Cc1ccco1)N(CCc1ccccc1)Cc1cc2ccc(OC)cc2[nH]c1=O (configuration not stated)	1	-2.9	0.2%	1	0.5	21

Arranged by value in PINK1 expr mod (high to low): 6 from the list above
smiles,PINK1 expr mod
COc1cccc(NC(=O)Cn2c(=O)n(-c3ccccc3)c(=O)c3sccc32)c1,3.7%
Cn1ccc2c(N3CCCC3)cc3c(c21)C1CCC3C1 (configuration not stated),3.6%
C[C@@H]1CN([C@@H](C)CO)C(=O)CCCn2nncc2CO[C@H]1CN(C)S(=O)(=O)c1cccc(F)c1,3.5%
CCC(c1nnnn1Cc1ccco1)N(CCc1ccccc1)Cc1cc2ccc(OC)cc2[nH]c1=O (configuration not stated),0.2%
O=C(c1ccc2c(c1)OCCO2)N1CCCCC1,-0.2%
CCOc1ccc(-c2nnc(N3CCCCC3)c3ccccc23)cc1,-0.5%

More compounds
SMILES	D2 PAM	D2 ag	PINK1 expr mod	Six1-Eya2 blk	TRPML1 agonist	CtBP-E1A inh
CCCn1c(N)c(N(CCOC)C(=O)c2cc(Cl)nc3ccccc23)c(=O)[nH]c1=O	-7	-1.2	5.7%	-2	-1.0	12
O=C(NNS(=O)(=O)c1ccccc1[N+](=O)[O-])c1cccc(Br)c1	11	2.6	0.0%	3	-1.3	9
Cc1ccc(NS(=O)(=O)c2cccc(C(=O)NCC(c3ccc(F)cc3)N3CCOCC3)c2)cc1 (configuration not stated)	?	-1.2	-3.1%	-7	1.7	-12
COc1ccccc1CNC(=O)COC(=O)c1cccc(S(=O)(=O)N2CCCC2)c1	-2	0.1	0.9%	4	-0.5	-3
Cc1cc(N/C=C\c2nnnn2-c2ccc(F)cc2)no1	-10	-0.1	2.5%	30	1.6	6
Cc1ccc(CN2CC(C(=O)Nc3ccc(F)c([N+](=O)[O-])c3)CC2=O)cc1 (configuration not stated)	-16	11	1.0%	-11	-0.2	.
C=CCOc1ccccc1CN1CCSCC1	-10	-3.0	1.3%[38.3 µM]	-3	1.8	-1
Cc1cc(Nc2ccccc2)nn1C(=O)c1ccccc1	-3	-1.7	.	8	0.7	7
O=C(NCc1ccccc1F)c1ccc(S(=O)(=O)Nc2cccc(C(F)(F)F)c2)cc1	-13	1.6	0.4%	2	3.0	17
C/C(=N\NC(=O)c1c(C)nc2ccccn12)c1ccccc1F	-1	-1.0	-1.3%	1	0.7	0
COc1ccc(C(CNC(=O)c2cc(S(=O)(=O)NCc3ccco3)ccc2C)N(C)C)cc1 (configuration not stated)	-11	-5.4	7.3%	-2	0.0	.
CCCOc1ccccc1C1C(C(=O)OC)=CN(C(C)C)C=C1C(=O)OC	-6	-1.5	6.1%	59	3.6	36
O=C(O)c1ccccc1CSc1nc2ccccc2s1	-6	-7.4	0.5%	4	0.7	-3
CCc1ccc(NC(=O)c2ccc(S(=O)(=O)NCc3cccnc3)cc2)cc1	-5	-1.6	-1.4%	-14	1.1	-14
O=C(CCn1c(SCC(=O)NCc2ccco2)nc2ccccc2c1=O)NCCc1ccccc1	9	2.0	13%	-4	-0.4	-13
O=C(CCc1nc2ccccc2[nH]c1=O)OCC(=O)c1ccc(Cl)cc1	-21	-1.8	12%[38.3 µM]	0	-0.3	17
CNc1ccc([N+](=O)[O-])cc1-c1nc2ccccc2[nH]c1=O	-10	-3.0	-2.3%	-3	-0.7	0
CCOC(=O)C1C(=O)NC(c2ccccc2)=NC1c1ccc(OC)cc1 (configuration not stated)	6	-1.8	2.1%	0	0.0	1
CCOc1ccccc1CN1CCNC(=O)C1CC(=O)NC1CCCCCC1 (configuration not stated)	-15	-4.4	-0.4%	3	-0.2	-7
Cc1c(Cl)cccc1NC(=S)N1CCCN(Cc2ccccc2F)C1	-16	-0.7	2.7%	-5	-0.8	-5
CC1=C(C)CC(C(=O)NCCc2ccc(F)cc2)C(C(=O)O)C1 (configuration not stated)	-1	-2.1	0.5%	4	0.1	5
COC(=O)c1c(C)[nH]c(C(=O)CN2C(=O)C3CC=CCC3C2=O)c1C (configuration not stated)	-6	1.0	-0.1%	3	0.0	0
CC(C(=O)N1CCCC1)N1CCN(S(=O)(=O)c2ccc(C(C)(C)C)cc2)CC1 (configuration not stated)	0	-0.9	0.0%	6	-0.7	.
Cc1cccc(OCCCC(=O)Nc2ccc(S(=O)(=O)Nc3onc(C)c3C)cc2)c1C	-2	-3.0	0.8%	-7	0.0	2
CCOC(=O)c1ccc(N2CCOCC2)c(NS(=O)(=O)c2ccc(F)cc2)c1	-17	-3.5	-1.3%	8	-0.2	1
SMILES	D2 PAM	D2 ag	PINK1 expr mod	Six1-Eya2 blk	TRPML1 agonist	CtBP-E1A inh
O=[N+]([O-])c1cccc(-c2nc(NCc3ccccc3)c3ccccc3n2)c1	-12	-4.8	?	-18	-0.3	0
CC(C)NC(=O)NC(=O)COC(=O)c1ccc(S(=O)(=O)Nc2ccccc2)cc1	-45	-6.9	-0.4%	10	-0.2	.
O=C(c1cccnc1)C1CCCN(Cc2nc(Cc3ccccc3F)no2)C1 (configuration not stated)	-4	2.4	3.3%	1	-1.1	2
O=CNc1cc(-c2ccccc2Oc2ccccc2)cn2c(-c3ccc(F)cc3)cnc12	-11	-7.5	2.3%	-20	-0.1	-6
COc1ccc(N(C(=O)c2cnccn2)C(C(=O)NC2CCCCC2)c2cc(OC)c(OC)c(OC)c2)cc1 (configuration not stated)	-3	-1.9	0.2%	-1	-0.1	-13
CC(NS(=O)(=O)c1ccc(Br)cc1F)[C@H](O)c1ccccc1 (some centres not stated)	3	-9.4	2.1%	7	-0.6	1
Cn1nc(-c2ccc(C(=O)NCC3CCCO3)cc2)c2ccccc2c1=O (configuration not stated)	-5	-0.5	1.7%	2	0.3	-1
O=C(Cc1c(Cl)cccc1Cl)Nc1cccc(S(=O)(=O)N2CCOCC2)c1	5	2.9	7.0%	7	1.8	7
O=C(NCCOC(=O)c1ccncc1)c1ccccc1	-2	-0.6	-1.0%	14	-0.4	-1
COc1ccc(/C=C/C(=O)NC(=S)Nc2ccc(C(=O)O)cc2)cc1	-7	-0.1	0.6%	-4	4.3	-1
Oc1ccccc1/C=N/Nc1cc(N2CCCC2)nc(N2CCCC2)n1	-45	-18	?	?	1.4	0
Cc1c(NC(=O)C(C)OC(=O)c2cccc(S(=O)(=O)N(C)C)c2)c(=O)n(-c2ccccc2)n1C (configuration not stated)	-3	7.8	-0.7%	1	0.7	4
CC(C)Cc1nnc(NC(=O)CCC(=O)Nc2ccc(Cl)cc2)s1	-17	-1.9	1.2%	5	0.2	-8
Cc1cccn2c(=O)c(/C=C(\C#N)C(=O)NCc3ccco3)c(N3CCC(C(N)=O)CC3)nc12	11	0.0	1.9%	2	1.1	-6
OCC1(Cc2cccc(F)c2)CCN(Cc2cccc3nccnc23)CC1	-6	-2.7	-1.2%	6	0.1	1
COc1ccc(C)cc1NC(=O)NCc1ccccc1F	-23	-1.7	1.5%	-2	-0.8	-1
CN(C)N1C(N)=C(C#N)C(c2cccnc2)C2=C1CCCC2=O (configuration not stated)	-2	-2.2	1.8%	-16	0.4	-2
COc1ccc(C(=O)N/C(=C\c2ccccc2)C(=O)NCCCn2ccnc2)cc1	-8	0.4	0.2%	-1	-0.4	-5
O=C1/C(=C/c2cccnc2)Cc2ccc(Cl)cc21	-6	0.2	2.4%	-3	-0.5	4
Cc1ccc(-c2nnc(Sc3nc4ccccc4o3)c3ccccc23)cc1	-6	-1.3	?	-19	1.3	-18
CCc1nc2c(OCCOc3ccc(F)cc3)cccn2c1N(C=O)Cc1ccc(OC)cc1	-2	2.3	0.5%	0	-0.5	-5
CCSc1nc2c(c(=O)[nH]1)C(c1ccncc1)C(C(=O)OC(C)C)=C(C)N2 (configuration not stated)	7	1.1	-2.0%	-2	2.7	2

Complete entries as entered above. Order of screens: D2 PAM	D2 ag	PINK1 expr mod	Six1-Eya2 blk	TRPML1 agonist	CtBP-E1A inh
CC(C)Cc1nnc(NC(=O)CCC(=O)Nc2ccc(Cl)cc2)s1 is entered as -17	-1.9	1.2%	5	0.2	-8
CCc1nc2c(OCCOc3ccc(F)cc3)cccn2c1N(C=O)Cc1ccc(OC)cc1 is entered as -2	2.3	0.5%	0	-0.5	-5
